Cruzain inh noDet – cruzain (T. cruzi) inhibition without detergent. 200,000 compounds, 2.3% hits. purified cruzain, Z-FR-AMC fluorescence, no detergent. P25779. AID 1476. Potency, µM, without a hit: max response, negative = inhibition, hits mostly inhibitors; active = well fitted curve in the direction sought with a large enough effect; inconclusive = small, poorly fitted or top-dose-only effect, or another doubt; inactive = no such curve, though single readings can be large; an effect the other way counts as inactive or inconclusive;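 note: plate controls were enzyme without inhibitor for no effect and buffer without enzyme for full effect; nearly all actives have a fitted effect of over 40% in size; top concentration of the series not given in the record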
Target sequence (P25779 123-467 limits assumed): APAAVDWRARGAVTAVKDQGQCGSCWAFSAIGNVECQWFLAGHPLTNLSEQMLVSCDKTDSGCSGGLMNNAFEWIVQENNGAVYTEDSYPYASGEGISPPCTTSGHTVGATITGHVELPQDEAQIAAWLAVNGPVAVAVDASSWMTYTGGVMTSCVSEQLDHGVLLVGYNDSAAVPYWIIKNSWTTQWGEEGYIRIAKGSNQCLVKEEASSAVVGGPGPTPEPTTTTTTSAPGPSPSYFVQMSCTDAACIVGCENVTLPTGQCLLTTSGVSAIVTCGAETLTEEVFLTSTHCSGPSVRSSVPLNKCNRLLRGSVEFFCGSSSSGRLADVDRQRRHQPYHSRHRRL
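Detergent-free condition (0.00005% Triton X-100) in acetate buffer pH 5.5 with DTT. 1.5 nM enzyme and compound were pre-mixed 15 min, then 2 uM Z-FR-AMC substrate added; reaction progress from fluorescence change between first and third reads (60 s).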
SARS PLP yeast – SARS-CoV PLP inhibition in yeast. 330,000 compounds, 0.19% hits. Potency, µM (doses to about 32.9 µM), without a hit: at the top dose activity, positive = growth rescue. S. cerevisiae expressing SARS-CoV PLpro, growth rescue; control for the full effect not named in the record; note: 0% is about no effect; nearly all actives have a fitted effect of over 55% in size; growth read by luminescence after 48 h
Marburg entry inh – blocks Marburg virus binding to or entry into cells. Marburg virus pseudotyped entry inhibition, cell reporter; control for the full effect not named in the record; about a third of the inactives were read at about 46 µM. Potency, µM (series often up to 37.8 µM), for the others: top-dose activity change, negative = inhibition, hits mostly inhibitors. 300,000 compounds, 1.8% hits; active = well fitted inhibition curve with a large enough effect; inconclusive = small, poorly fitted or top-dose-only effect, or effect the other way; inactive = flat fitted curve, though single readings scatter; tested in HEK293 cells; about a fifth of its hits are not listed in these tables; note: % is set by controls: 0 for no effect and ±100 for the full control effect; luciferase read-out
RE007 growth inh – less growth of the S. pombe RE007 Vpr strain; 360,000 compounds, 0.21% hits; AID 651644; Potency, µM (titrated, usually from 92.2 µM), for the others: at the highest dose activity change, negative = less growth; S. pombe RE007 Vpr strain, BacTiter-Glo ATP luminescence, 24 h; control for the full effect not named in the record; active = well fitted falling curve with a large enough effect; inconclusive = small, poorly fitted or top-dose-only effect; inactive = no such curve, though single readings can be large or run the other way;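 note: % is set by controls: 0 for no effect and ±100 for the full control effect; nearly all actives have a fitted effect of over 50% in size; the assay follows cell death caused by Vpr and the record does not say whether a fall means rescue or toxicity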
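Fission yeast strain RE007, carrying one chromosomally integrated HIV-1 vpr copy, was seeded at OD 0.01 in PMG+AL medium with 23 nL pinned compound. After 24 h at 30 °C and 99% humidity, viability was read by BacTiter-Glo luminescence.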
Lassa entry inh – Lassa virus entry inhibition. Lassa virus pseudotype entry inhibition, cell reporter; control for the full effect not named in the record. Potency, µM (highest dose often 37.9 µM), without a hit: top-dose activity change, negative = inhibition, actives largely listed as inhibitors. AID 540256. 300,000 compounds, 1.2% hits; active means well fitted inhibition curve with a large enough effect; inconclusive means small, poorly fitted or top-dose-only effect, or effect the other way; inactive means flat fitted curve, though single readings scatter; tested in HEK293 cells; note: % is set by controls: 0 for no effect and ±100 for the full control effect; nearly all actives have a fitted effect of over 50% in size; luciferase read-out
StopGo reporter – FMDV 2A StopGo reporter, luciferase signal; 410,000 compounds, 1.2% hits; human cells with a luciferase reporter of 2A StopGo recoding; control for the full effect not named in the record; Potency, µM (titrated, usually from 57.9 µM), without a hit: top-dose signal change, negative = less light; active = well fitted falling curve with a large enough effect; inconclusive = small, poorly fitted or top-dose-only effect; inactive = no such curve, though single readings can be large or run the other way; tested in HEK293T cells; note: % is set by controls: 0 for no effect and ±100 for the full control effect; nearly all actives have a fitted effect of over 45% in size; luciferase light after 4 h
Cruzain Triton – inhibitors of Trypanosoma cruzi cruzain with detergent; P25779; Potency, µM, for the others: max response, negative = inhibition, hits mostly inhibitors; 200,000 compounds, 0.43% hits; purified cruzain, Z-FR-AMC fluorescence, 0.01% Triton; AID 1478; active = well fitted curve in the direction sought with a large enough effect; inconclusive = small, poorly fitted or top-dose-only effect, or another doubt; inactive = no such curve, though single readings can be large; an effect the other way counts as inactive or inconclusive;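 note: plate controls were neutral wells for no effect and buffer without enzyme for full effect; nearly all actives have a fitted effect of over 40% in size; top concentration of the series not given in the record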
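Detergent-containing run (0.01% Triton X-100) in acetate buffer pH 5.5 with 5 mM DTT: enzyme at 1.5 nM final, 15 min compound preincubation at room temperature, then 2 uM Z-FR-AMC substrate. Activity taken as 60 s fluorescence increase at 360/450 nm.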
NS1 inh – inhibitors of influenza NS1 protein function | S. cerevisiae slowed by influenza A NS1, growth recovery by OD600 | Potency, µM (series often up to 46.1 µM), for the others: top-dose activity, positive = more growth | 270,000 compounds, 0.4% hits; note: actives are rising curves; nearly all actives have a fitted effect of over 50% in size
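Compounds were scored for reversing the slow growth caused by influenza A NS1 in S. cerevisiae, measured by optical density at 600 nm. Assay medium contained 2% galactose at pH 6.0; NS1-free yeast of the same strain were the positive control.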
Active calls of the source: *; u = inconclusive; x = not tested or not shown; & = joins results of further samples; [ ] = another dose, or the depositor's remark. Unless noted, calls come from the whole dose curve; as a rule, active means well fitted rising curve with a large enough effect; inconclusive means small, poorly fitted or top-dose-only effect; inactive means no such curve, though single readings can be large or run the other way. Potency is the fitted concentration of half-maximal effect.

SMILES	Cruzain inh noDet	SARS PLP yeast	Marburg entry inh	RE007 growth inh	Lassa entry inh	StopGo reporter	Cruzain Triton	NS1 inh
CS(=O)(=O)c1ccc(C(=O)Nc2cccc(-c3nc4ccccc4[nH]3)c2)cc1	x	11.0%	x	0.4%	x	u	x	1.8%
CCOc1cccc(C(=O)N(Cc2ccc(CC)cc2)C2CCS(=O)(=O)C2)c1 (stereo unspecified)	u	x	-16.4%[46.1 µM]	x	-1.2%[46.1 µM]	-7.1%	-6.0%	x
CC(=O)N1c2ccc(S(=O)(=O)NCC3CCC(C(=O)Nc4ccccc4C)CC3)cc2CC1C (stereo unspecified)	u	x	x	x	0.3%[46.1 µM]	-26.4%	-0.2%	x
CCOc1ccccc1N1CC(C(=O)Nc2cccc(S(=O)(=O)N3CCCCC3)c2)CC1=O (stereo unspecified)	x	-1.2%	u	9.9%	-23.7%	u	x	x
Cc1ccc(Nc2cc(=O)[nH]c(=O)[nH]2)c(C)c1	13.6%	-3.6%	u	7.7%	25.6%	-6.2%	4.8%	8.9%
O=C(NCCCN1CCCCCC1)c1ccc2c(Cl)c3c(nc2c1)CCCC3	x	-0.2%	x	-19.8%	x	-5.5%	x	x
CCOc1cc(NC(=O)CC(C)C)c(OCC)cc1NC(=O)CCn1nnc2ccccc21	-11.6%	-1.5%	-24.6%	16.3%	4.1%	0.7%	8.1%	8.6%
CCCCn1c(N)c(N(CC(C)C)C(=O)CCNC(=O)c2ccccc2Cl)c(=O)[nH]c1=O	x	4.3%	9.0%[46.1 µM]	-3.0%	-2.6%	-13.4%	x	x
OCCCNc1ncnc2[nH]ncc12	10.6%	x	21.8%[46.1 µM]	3.7%	-11.0%[46.1 µM]	-11.9%	-0.6%	-4.1%
CC1Cc2ccccc2N1CC(=O)NC(=O)NC1CCCCC1 (stereo unspecified)	x	-0.9%	x	17.0%	x	12.3%	x	1.0%
CCOC(=O)c1cccnc1SCC(=O)Nc1ccc(C)cc1	x	-4.9%	4.6%[46.1 µM]	16.4%	23.8%	33.7%[activator]	x	x
COc1cc(/C=N/NC(=O)c2ccncc2)ccc1OCc1cnc(Cl)s1	x	-0.7%	u	-25.8%	-7.0%[46.1 µM]	14.7%	x	4.0%
CCN(CC)C(=O)C1CCN(C(=O)c2cnn(-c3ccccc3)c2-n2cccc2)CC1	6.7%	x	16.2%[46.1 µM]	x	-0.7%[46.1 µM]	-10.2%	-1.9%	x
O=C1CCC2c3ccc4ccccc4c3CCN12 (stereo unspecified)	-0.6%	1.1%	3.0%	-13.9%	6.3%	-4.3%	-6.8%	6.4%
O=C(Nc1ccc(Cl)cc1)c1cc(-c2cccs2)on1	x	9.8%	x	-2.3%	x	67.6%[activator]	x	-4.3%
Cc1cc2ccccc2n1CCNC(=O)COc1ccccc1	-8.6%	-1.6%	x	8.1%	x	-14.9%	1.7%	-47.7%
CN1CCOc2cc(S(=O)(=O)NCc3ccc(S(N)(=O)=O)cc3)ccc21	x	-0.2%	-1.8%	6.3%	-2.1%	-14.2%	x	9.9%
Cc1noc(C)c1CSc1nnc(-c2ccncc2)n1-c1ccc(Cl)c(Cl)c1	u	-0.3%	0.0%	1.9%	4.0%	-15.9%	-0.5%	-10.2%
CCOC(=O)c1ccc(NC(=O)CSC2=NC(=O)C(CC)C(=O)N2)cc1 (stereo unspecified)	-7.3%	12.1%	-0.5%	7.2%	8.4%	23.1%	-12.9%	-8.1%
CCc1ccc(NC(=O)CSc2nc3ccccc3c(=O)n2CCCC(=O)N2CCCC2)cc1	u	-0.5%	9.2µM*	12.4%	25.9µM*	19.2%	-5.6%	7.4%
NC(=O)c1ccc(N=Cc2c(O)ccc3ccccc23)cc1	x	x	u	-27.1%	2.8%[46.1 µM]	u	x	x
COC(=O)c1ccc(OCC(O)CNC2CCCC2)cc1 (stereo unspecified)	x	-1.4%	-0.2%[46.1 µM]	-5.8%	9.1%[46.1 µM]	-17.7%	x	16.9%
Cc1cc(NC(=O)c2cc(-c3cccc(Cl)c3)on2)no1	20µM*	u	-15.0%	-2.6%	13.4%	3.1%	4.7%	-8.9%
Cc1ccc(S(=O)(=O)c2nc(NN(C)C)sc2Cl)cc1	x	-0.3%	u	4.7%	-8.0%	-22.6%	x	x
Cc1ccc(NS(=O)(=O)c2ccc(C(=O)NCCCN3CCOCC3)cc2)cc1	x	-3.1%	3.5%	-17.0%	-22.6%	-8.9%	x	x

(more compounds)
SMILES	Cruzain inh noDet	SARS PLP yeast	Marburg entry inh	RE007 growth inh	Lassa entry inh	StopGo reporter	Cruzain Triton	NS1 inh
Cc1nn(C)c(N)c1[N+](=O)[O-]	x	-0.4%	x	-3.5%	x	3.4%	x	-1.6%
O=C(N/N=C/CCc1ccccc1)c1ccccc1	4.2%	-6.8%	3.9%	2.9%	u	34.4%[activator]	2.6%	10.7%
COc1ccc(CC(=O)NNC(=O)c2nn(Cc3ccccc3)c(=O)c3ccccc23)cc1OC	x	0.8%	x	11.9%	x	-16.3%	x	5.6%
CCC(C)(C)NC(=O)C(c1ccc(C)cc1)N(Cc1cccnc1)C(=O)c1csnn1 (stereo unspecified)	13.4%	2.7%	-16.8%[46.1 µM]	-19.9%	-23.2%	10.1%	-6.7%	-1.7%
COC(=O)CCc1ccc(O)cc1	x	-3.2%	x	-1.1%	x	-6.6%	x	-10.1%
COc1ccc(CNC2CCCCC2C)c(OC)c1 (stereo unspecified)	-1.1%	9.9%	-25.9%	-0.3%	0.0%	-15.1%	5.0%	-4.9%
Cc1ccc(C)c(S(=O)(=O)Nc2cc3c4c(c2)CC(=O)N4CCC3)c1	x	3.5%	-25.3%	1.5%	u	75.4%[activator]	x	x
CC1CCN(C(=O)CSc2nnc(Cn3c(=O)sc4ccccc43)n2C)CC1	-5.2%	-20.1%	x	-1.8%	x	-19.2%	-2.0%	-2.5%
Cc1ccc(C)c(OCCNc2ccc([N+](=O)[O-])cn2)c1	x	-1.1%	x	-8.4%	x	-12.1%	x	-0.1%
N#Cc1c(-c2cccc(F)c2)cc(-c2ccccc2)nc1Br	u	0.3%	u	14.8%	-17.0%	-28.2%	-1.4%	-6.8%
CCc1ccc(/C=C/C(=O)c2ccc(S(=O)(=O)N(C)C)cc2)cc1	-6.2%	-11.2%	u	-5.0%	-0.1%	u	-8.2%	-5.5%
O=C(CN1CCN(S(=O)(=O)c2ccc(Br)cc2)CC1)N/N=C/c1cccnc1	0.7%	9.6%	-8.4%	0.7%	4.4%	-9.3%	2.0%	-3.3%
CN(C(=O)c1ccc2c(c1)OCO2)C1(C(=O)NC2CCCC2)CCCCC1	-10.1%	1.0%	-11.7%	-4.1%	26.7%	4.6%	5.2%	3.0%
COc1ccccc1N(CC(=O)NC1CCCC1)C(=O)c1csnn1	6.3%	13.0%	-6.1%	-11.8%	-0.5%	12.0%	2.1%	0.2%
Cc1nc2nc(C)c(CCC(=O)Nc3ccc4c(c3)OCO4)c(C)n2n1	7.9%	-8.0%	6.7%	-10.5%	8.0%	-11.7%	3.5%	-7.1%
COc1cccc(CNC(=O)CCn2ccc3cc(S(=O)(=O)N4CCCC4)ccc32)c1	3.1%	10.5%	x	0.2%	1.1%[46.1 µM]	-7.2%&-11.1%	-4.3%	11.6%
O=c1[nH]nc(-c2ccc(F)cc2)cc1Cc1cccs1	x	-2.0%	-6.4%	-14.7%	u	-6.2%	x	7.5%
CC(C)Nc1nnc(SCC(=O)/C=C2\N(C)c3ccccc3C2(C)C)s1	10.4%	-50.3%	0.5%	12.3%	-10.4%	u	-8.0%	-3.1%
CCCC(=O)C1=C(c2cccc(OC)c2)N(C(=O)CCC)n2c(C)nnc2S1	u	x	x	x	-10.4%[46.1 µM]	-17.2%	-9.0%	x
CCOC(=O)N1CCC(N2C(=O)c3ccccc3C2Nc2cc(Cl)c(OC)cc2OC)CC1 (stereo unspecified)	u	1.5%	-15.9%&-15.9%	10.1%	-17.2%	0.0%	-4.1%	-25.5%
CSc1nc2nccc(-c3ccc(Cl)cc3)n2n1	u	x	15.7%	-5.3%	-0.8%	0.0%	0.5%	11.2%
Cc1cc(NC(=O)CSCC(=O)N(C)Cc2cccc(Cl)c2)no1	x	-4.6%	5.0%	-28.2%	0.6%	-18.4%	x	x
CC(OC(=O)/C=C/c1cccc(C(F)(F)F)c1)C(=O)NC1CCCCC1C (stereo unspecified)	x	0.3%	3.5%[46.1 µM]	22.4%	18.1%	-3.2%	x	x
Cc1cc(=O)[nH]c2c1cnn2Cc1ccccc1	-2.6%	0.1%	26.4%	-17.3%	12.9%	-9.1%	-6.3%	3.8%
O=C(N=Nc1c(O)[nH]c2ccccc12)c1ccco1	x	-1.9%	-28.9%[46.1 µM]	-25.8%	-20.1%	0.1%	x	-33.0%

Continuation:
SMILES	Cruzain inh noDet	SARS PLP yeast	Marburg entry inh	RE007 growth inh	Lassa entry inh	StopGo reporter	Cruzain Triton	NS1 inh
Cc1cccc(-n2c3nc(=O)[nH]c(=O)c-3cc3ccc(Cl)cc32)c1C	-6.9%	x	u	x	-0.4%[46.1 µM]	u	-1.6%	x
Cc1ccccc1NC(=O)C1CCN(S(=O)(=O)c2cccc3nonc23)CC1	-17.2%	1.4%	-6.9%&-6.6%[46.1 µM]	2.2%	5.7%&4.5%[46.1 µM]	12.3%&-2.6%	-3.3%	u
Cc1oc2cc3oc(=O)c(CC(=O)N4CCCCC4)c(C)c3cc2c1C	-6.1%	x	3.9%[46.1 µM]	x	-1.6%[46.1 µM]	23.3%	0.2%	x
COc1ccccc1N1CCN(CCOc2c(OC)cccc2OC)CC1	-3.7%	3.7%	-11.2%	-13.2%	-16.6%	-20.3%	0.0%	-4.9%
Cc1ccccc1CS(=O)(=O)Cc1ccc(C(=O)NCc2ccc(F)cc2)o1	5.4%	x	x	x	u	u	0.3%	x
Cc1ccc(C(=O)N/C(=C\c2cccs2)C(=O)NCC2CCCO2)cc1C (stereo unspecified)	-0.9%	u	-4.2%	1.4%	3.6%	-10.7%	1.8%	15.8%
O=C1CCC(=O)N1OCCCCOc1ccccc1	-4.5%	5.4%	u	-10.6%	-0.1%	9.9%	0.4%	-5.8%
COc1cccc(NC(=O)CN(C)CC(=O)NCc2ccc(F)cc2)c1	x	-2.5%	-10.2%[46.1 µM]	1.8%	0.5%[46.1 µM]	15.4%	x	x
